KCNQ2 block: KCNQ2 potassium channel inhibitors, primary screen, cell-based, CHO-K1, FluxOR thallium flux, B-score (AID 2156). Potassium voltage-gated channel subfamily KQT member 2 (Rattus norvegicus), O88943. 20 min; active compounds read low; only compounds with negative scores are shown here; some inactives read as strong as hits. B-score at 10 µM. hit rate 1.1% among 310,000;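 active means fluorescence ratio B-score at most minus 3 library SDs, with starting brightness B-score within 2 library SDs, cut at about -5.5 in these data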
Target sequence (O88943 whole entry, looked up): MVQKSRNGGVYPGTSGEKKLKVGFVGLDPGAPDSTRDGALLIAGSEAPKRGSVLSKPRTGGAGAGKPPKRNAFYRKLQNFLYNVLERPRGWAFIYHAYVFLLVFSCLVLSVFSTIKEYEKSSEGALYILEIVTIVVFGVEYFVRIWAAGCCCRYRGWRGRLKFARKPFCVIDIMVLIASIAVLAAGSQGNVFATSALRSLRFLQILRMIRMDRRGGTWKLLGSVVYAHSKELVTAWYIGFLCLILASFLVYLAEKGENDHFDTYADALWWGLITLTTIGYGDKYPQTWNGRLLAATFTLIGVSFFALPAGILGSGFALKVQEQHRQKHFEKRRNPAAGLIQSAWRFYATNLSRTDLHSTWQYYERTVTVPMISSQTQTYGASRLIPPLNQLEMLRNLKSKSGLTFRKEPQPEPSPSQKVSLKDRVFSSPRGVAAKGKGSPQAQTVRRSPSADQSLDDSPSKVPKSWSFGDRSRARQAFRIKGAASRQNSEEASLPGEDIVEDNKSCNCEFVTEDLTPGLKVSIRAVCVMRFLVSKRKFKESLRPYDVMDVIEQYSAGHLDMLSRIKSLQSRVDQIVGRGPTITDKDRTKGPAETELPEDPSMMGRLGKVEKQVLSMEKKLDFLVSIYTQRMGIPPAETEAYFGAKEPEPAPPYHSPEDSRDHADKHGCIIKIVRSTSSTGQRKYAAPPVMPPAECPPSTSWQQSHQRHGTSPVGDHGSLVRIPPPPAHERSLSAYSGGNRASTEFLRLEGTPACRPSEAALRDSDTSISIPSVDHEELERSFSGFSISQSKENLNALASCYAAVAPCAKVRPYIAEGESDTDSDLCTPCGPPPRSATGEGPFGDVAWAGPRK
KCNQ2 block baseline: recorded beside KCNQ2 block, whose call it bears; B-score; measured here: initial fluorescence intensity artifact check;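 brightness before thallium and not channel activity; 0 = typical well and far values either way flag optical interference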
* marks the source's active call; other numbers are inactive results; i = inactive. The list is partial; rates above refer to the full screens.

Each structure is followed by: KCNQ2 block | KCNQ2 block baseline
CCOC(=O)N1CCN(C(=O)C2CC(=O)N(c3ccc(OC)cc3)C2c2ccc(OC)cc2)CC1 (stereo unspecified)
    i | 0.04
CCCN1C(=O)c2cc(C(=O)Nc3ccccc3C)ccc2C1Nc1ccccc1C (stereo unspecified)
    i | 1.1
CCn1c(CNC(=O)c2cccs2)nnc1SCC(=O)Nc1ccc(Cl)cc1
    i | -0.01
Cc1nn(-c2ccccc2)nc1CNC(=O)C1CC1
    i | -0.63
CN(C)CCCN(C(=O)c1ccc2c(c1)CCCC2)c1nc2ccc(F)cc2s1
    i | -0.69
COc1cc2c(cc1/C=C1/NC(=O)N(c3ccccc3)C1=O)OCO2
    i | 0.3
O=C(NCCO)C1(c2ccc(Cl)cc2)CCCC1
    i | 0.92
COc1ccc2oc(-c3ccccc3)c(C(=O)N3CCOCC3)c2c1
    i | -2.1
CCCCn1c(N)c(N(CCC(C)C)C(=O)C2CCN(C(=O)c3ccccc3C)CC2)c(=O)[nH]c1=O
    i | -0.48
Cc1cc(Nc2ccc(Br)cc2F)n2ncnc2n1
    i | -0.39
CCOC(=O)c1cc(NC(=O)c2ccc(Cl)cc2)c(=O)n2c1oc1ccc(Cl)cc12
    i | -0.61
CCCCN(CC)CCNC(=O)c1ccc2c(Cl)c3c(nc2c1)CCC3
    i | 2.8
Cc1cccc(-c2nc(NCCCN3CCOCC3)c3ccccc3n2)c1
    -5.9* | -0.61*
O=C(C1CCC(Cn2c(=O)[nH]c3ccccc3c2=O)CC1)N1CCN(c2ccccc2)CC1 (stereo unspecified)
    i | 2.4
CSc1ccc(/C=C(\NC(=O)c2ccc(C)cc2)C(=O)Nc2cccc(C)c2)cc1
    i | -0.07

(more compounds)
Each structure is followed by: KCNQ2 block | KCNQ2 block baseline
CC(=O)c1cccc(NC(=O)CCNS(=O)(=O)c2cccc3nonc23)c1
    i | -0.02
Cc1ccc(Cn2ccc(=O)c(OCc3ccccc3)c2C)cc1
    i | 0.13
COCCn1cc(C(=O)NCc2cccs2)c2c3ccccc3n(C)c2c1=O
    i | 0.32
COc1ccc(/C=C/C(=O)c2ccc([N+](=O)[O-])o2)cc1OC
    i | 0.35
COc1ccc2c(c1)O/C(=C\c1ccccc1C)C2=O
    i | -0.37
CCOC(=O)C1CCCN(C(=O)CN2CCN(Cc3ccc(Cl)cc3)C2=O)C1 (stereo unspecified)
    i | -1.1
O=C(c1ccccc1Br)N1CCc2c([nH]c3ccccc23)C1
    i | -1.2
COc1ccc(N2C3=C(C(=O)CC(C)(C)C3)C(c3cnn(C)c3)C3=C2CC(C)(C)CC3=O)cc1
    i | 0.6
CC(C)Cn1c(N)c(C(=O)COC(=O)C2=COCCO2)c(=O)n(C)c1=O
    i | -0.04
Cc1ccc(-n2nc3c(=O)n(C(C)C(=O)NCCc4cccs4)nc(C)c3c2C)cc1 (stereo unspecified)
    i | -3.3
CSc1nc(C(=O)N2CCCC(Nc3ccc(C)c(C)c3)C2)cs1 (stereo unspecified)
    i | 1.3
c1cc(-c2noc(CCC3CCCC3)n2)ccn1
    i | 1.7
CC(=O)c1ccc(S(=O)(=O)N(C)CCCC(=O)N(C)Cc2c(F)cccc2Cl)cc1
    i | 3.9
CCN(CC)C(=O)C(Cc1ccccc1)N1C(=O)c2ccccc2C1=O (stereo unspecified)
    i | 0.95
CCOC(=O)C1CCN(C(=O)COc2ccc(N(C)S(=O)(=O)c3cccs3)cc2)CC1
    i | -0.05

More structures
Each structure is followed by: KCNQ2 block | KCNQ2 block baseline
O=C(CSc1nnc(Nc2ccccc2F)s1)Nc1cccc(S(=O)(=O)N2CCCCC2)c1
    i | 0.77
O=C(O)c1cccc(S(=O)(=O)N(Cc2ccccc2)c2ccccc2)c1
    i | 0.01
CC(C)(C)NC(=O)CCc1ncc(C(F)(F)F)cc1Cl
    i | 0.67
CC(Oc1ccc(Cl)cc1)C(=O)/C=C/N(C)C (stereo unspecified)
    i | 0.78
Cn1c(=O)c(=O)n(C)c2cc(S(=O)(=O)Nc3ccc4c(c3)OCCO4)ccc21
    i | 1.5
COC(=O)c1ccc(COc2ccccc2/C=N/NS(=O)(=O)c2ccc(C)cc2)cc1
    i | 1.6
O=C(CN1CCN(c2ccccn2)CC1)Nc1ccc(OC(F)(F)F)cc1
    i | 1.4
CC(=O)Nc1cc(-c2nn(C)c(=O)c3ccccc23)ccc1N1CCOCC1
    i | -1.4
CCOC(=O)C1CCN(C/C=C/c2ccccc2OC)CC1
    i | -0.98
O=C(CSCc1cccc(Br)c1)NC1CC1
    i | -0.54
CCc1nc(SCC(=O)Nc2ccc(F)cc2F)c2c(=O)n(C)c(=O)n(C)c2n1
    i | -0.52
c1ccc(SCCc2ccncc2)cc1
    i | -0.49
Cc1noc(C)c1CSc1nc2ccccc2c(=O)n1-c1ccc(Cl)cc1
    i | -1.6
c1ccc(-c2nc3nc4ccccc4nc3n2CC2CCCO2)cc1 (stereo unspecified)
    i | 0.01
CCc1cc2c(SCC(=O)N(CC)c3c(N)n(Cc4ccccc4)c(=O)[nH]c3=O)ncnc2s1
    i | 1.2

Additional results.
Each structure is followed by: KCNQ2 block | KCNQ2 block baseline
CCCCn1ccnc1C(=O)c1ccc(S(=O)(=O)N(CCOC)CCOC)cc1
    i | 1.2
COc1cccc(NC(=O)c2ccc3c(c2)OCCO3)c1
    i | -0.34
O=C(Nc1ccccc1F)c1ccc([N+](=O)[O-])s1
    i | -0.24
O=C(Nc1ccc(Cl)cn1)c1ccc(Oc2ccccc2)cc1
    i | -0.56
O=C(Nc1cccc(S(=O)(=O)NC2=NCCCCC2)c1)c1cc(-c2ccc(Cl)cc2)nc2ccccc12
    i | 1.5
O=C(NCCC(=O)N(CCc1ccccc1)Cc1ccccc1)c1ccccc1Cl
    -6.7* | 2*
COc1ccc(C(=O)Nc2cccc(C(C)=O)c2)cc1S(=O)(=O)N1CCOCC1
    i | 7.7
Cc1cc(=O)oc(C)c1C(=O)Nc1c(C)n(C)n(-c2ccccc2)c1=O
    i | -0.56
Clc1ccc(Cn2c(CN3CCCC3)nc3ccccc32)cc1
    i | 0.54
O=c1nc2ccccc2c(NS(=O)(=O)c2ccc(Cl)cc2)n1-c1ccccc1
    i | 0.91
COC(=O)c1ccc2c(=O)n(-c3ccc(OC)cc3)c(=S)[nH]c2c1
    i | -0.23
O=C(N1CCOCC1)N1CCN(c2ccccn2)CC1
    i | 0.3
COc1cc(CC(NC(C)=O)C(=O)NC2CCN(C(=O)Nc3ccccc3Cl)CC2)cc(OC)c1 (stereo unspecified)
    i | -0.13
O=C(Nc1ccc(Cl)c(C(F)(F)F)c1)[C@@H]1CC=C[C@@H]2CCN(C3CC3)C(=O)[C@@H]21
    i | -0.19
O=C(O)CCN1CCc2ccccc2C1c1cccs1 (stereo unspecified)
    i | 0.01

Next section:
Each structure is followed by: KCNQ2 block | KCNQ2 block baseline
c1ccc(Nc2nc(N3CCCCC3)nc(N3CCCCC3)n2)cc1
    i | -0.78
COc1cccc(C(C(=O)NC2CCCC2)N(Cc2ccc(C)cc2)C(=O)c2ccco2)c1OC (stereo unspecified)
    i | 0.1
CCc1c(C)n([O-])c2c([n+]1=O)CCC2
    i | -0.79
Nc1ccc(-c2nnc(-c3ccc(-c4ccccc4)cc3)o2)cc1
    i | 0.53
COc1ccc(-n2nc3c(c2NC(=O)C2CC2)CS(=O)(=O)C3)cc1
    i | -1.1
O=C(NC1CCCc2ccccc21)c1cc(Cl)ccn1 (stereo unspecified)
    i | 0.83
COc1ccc(NC(=O)COC(=O)CCc2ccccc2)c(OC)c1
    i | -0.46
Cc1ccc(CSc2ccc(-c3ccc4c(c3)OCO4)nn2)cc1
    i | 0.8
COc1cc(/C=N/NC(=O)c2cc(C)oc2C)ccc1O
    i | -1.4
O=C(CSCc1ccc(Cl)cc1)NCC1CCCO1 (stereo unspecified)
    i | -1.2
COc1ccc(NC(=O)C2CCN(C(=O)c3ccc(OC)cc3)CC2)cc1
    i | 0.88
COc1ccccc1CNC(=O)c1cc(-c2ccccc2)nn1CC1CC(c2cccnc2)=NO1 (stereo unspecified)
    -6.1* | 0.02*
COc1ccccc1OCC(=O)Nc1nc2c(s1)CCCC2
    i | 0.07
COc1ccc(OC)c(C(=O)COC(=O)C2CC3CCCC(C2)C3=O)c1 (stereo unspecified)
    i | 0.13
Cc1cc(NC(=O)c2ccc3c(c2)OCO3)ccc1NC(=O)c1ccco1
    i | -0.41

(listing goes on)
Each structure is followed by: KCNQ2 block | KCNQ2 block baseline
CCCC(C)NC(=O)C1CCN(C(=O)C2CC(=O)N(c3ccc(C)cc3)C2)CC1 (stereo unspecified)
    i | 1.3
CS(=O)(=O)N(CC(=O)N1CCCCCC1)c1ccc(Cl)cc1
    i | 1.2
Cc1cccc(C(=O)Nc2cc(Cl)ccc2-n2cncn2)c1[N+](=O)[O-]
    i | 1.4
COc1ccc(CCNC(=O)c2ccc(Cl)cc2Cl)cc1
    i | -0.06
O=S(=O)(Nc1ccccc1Cl)c1ccc2[nH]c(=S)oc2c1
    i | -0.89
CC(C)(C)c1ccc(C(=O)NNc2ncccc2-n2cccc2)cc1
    i | 0.87
CN(C)S(=O)(=O)c1cccc(NC(=S)N/N=C/c2cc(Br)ccc2O)c1
    i | 0.25
COC(=O)c1ccccc1NC(=O)Cn1c(CCC(=O)O)ccc1-c1cccs1
    i | 0.14
C=CCn1c(SCC(=O)Nc2ccc(F)cc2F)nc2c([nH]c3ccccc32)c1=O
    i | -0.11
COC(=O)C(NC(=O)c1ccccc1Cl)(Nc1ncc(S(=O)(=O)c2ccc([N+](=O)[O-])cc2)s1)C(F)(F)F (stereo unspecified)
    i | 0.01
CCNc1nc(Oc2ccc(Cl)cc2Cl)cc(C(F)(F)F)n1
    i | 0.4
COc1ccc(-n2cnc3ccccc32)cc1
    i | -3.4
O=C(NCc1ccccc1Br)c1ccncc1
    i | -0.92
Cc1ccccc1C1=NC(c2ccc(F)cc2F)ON1 (stereo unspecified)
    i | -0.17
CN(Cc1cccc(-n2cccn2)c1)C(=O)CCc1nnc(C2CCCCC2)o1
    i | -0.16

(list continues)
Each structure is followed by: KCNQ2 block | KCNQ2 block baseline
C=CCNC(=O)COc1ccc(Br)cc1Cl
    i | -0.3
O=C(NCc1cccnc1)c1ccc(CS(=O)(=O)c2ccc(Br)cc2)o1
    i | 0.32
CCOC(=O)Cc1csc(NC(=O)c2cccc(Cl)c2)n1
    i | -0.18
COc1cccc(C(=O)Nc2ccc(-c3nc4ccccc4o3)c(O)c2)c1
    i | -0.55
O=C1C(NS(=O)(=O)c2cccs2)=C(N2CCN(c3cccc(C(F)(F)F)c3)CC2)C(=O)c2ccccc21
    i | -0.17
CCCCNC(=O)OCCSCCS(=O)(=O)c1ccc(Cl)cc1
    i | -0.7
COC(=O)Nc1ccc(S(=O)(=O)N2CCC(C(=O)N3CCCC(C)C3)CC2)cc1 (stereo unspecified)
    i | 1.1
COc1ccccc1CCNC(=O)c1cc(COc2cccc(C(F)(F)F)c2)on1
    i | -0.12
CC(C)(Oc1ccc(Cl)cc1)C(=O)NCc1ccco1
    i | -2.4
COc1ccc(NC(=O)/C(C#N)=C\C=C\c2ccco2)cc1
    i | -0.14
CCC(=O)Nc1ccc(NC(=O)C23CC4CC(CC(C4)C2)C3)cn1
    i | 0.31
CCN(CC)CC(=O)Nc1ccccc1SCC(=O)Nc1ccsc1C(=O)OC
    i | 2
COc1ccc(NC(=O)Nc2nnc(N3CCCCC3C)s2)cc1OC (stereo unspecified)
    i | 0.18
FC(F)(F)c1nc2ccccc2n2c(-c3ccc(Cl)cc3)nnc12
    i | -1.9
Cc1ccc(NC(=O)c2nnn(-c3cccc(C(F)(F)F)c3)c2N)cc1
    i | 1.4

Some of the entries above in another layout:
SMILES	KCNQ2 block	KCNQ2 block baseline
CCCCN(CC)CCNC(=O)c1ccc2c(Cl)c3c(nc2c1)CCC3	i	2.8
CC(=O)c1cccc(NC(=O)CCNS(=O)(=O)c2cccc3nonc23)c1	i	-0.02
O=C(NCCO)C1(c2ccc(Cl)cc2)CCCC1	i	0.92

Additional results
Each structure is followed by: KCNQ2 block | KCNQ2 block baseline
O=C(COc1coc(CN2CCc3ccccc3C2)cc1=O)Nc1cccc(Cl)c1
    i | 0.57
CCC(CC)c1nnc(NC(=O)c2c(C)nn(Cc3ccccc3Cl)c2C)s1
    i | -0.63
CCOCCc1nnc(NC(=O)CS(=O)(=O)c2ccc(C)cc2)s1
    i | -0.93
O=C(Nc1cccc(Cl)c1)OCc1cnc(Cl)s1
    i | 0.04
Cc1ccc(N2C(=O)c3cccc4c(Oc5ccccc5[N+](=O)[O-])ccc(c34)C2=O)c(C)c1
    -6* | -0.63*
O=[N+]([O-])c1ccccc1N/N=C/c1ccc2c(c1)OCO2
    i | -2.2
CC1CCCCN1c1cc(C#N)c(C#N)cc1[N+](=O)[O-] (stereo unspecified)
    i | 2.4
O=C1CC(c2ccc(Cl)cc2)SC(N(c2ccccc2)c2ccccc2)=N1 (stereo unspecified)
    i | -0.67
Cc1ccccc1S(=O)(=O)Cc1ccc(C(=O)N2CCN(C3CCCCC3)CC2)o1
    i | 0.53
CCOC(=O)c1[nH]c(C)c(/C(O)=C2\C(=O)C(=O)N(CCN(C)C)C2c2cccc(OC)c2OC)c1C (stereo unspecified)
    i | 0.02
COc1ccccc1OCc1cc(C(=O)NCc2ccc(N3CCCC3=O)cc2)no1
    i | -0.31
O=C(NC(=S)NCC1COc2ccccc2O1)c1ccccc1 (stereo unspecified)
    i | 0.79
CC1CC(C)CN(C2CCN(Cc3cccnc3)CC2)C1 (stereo unspecified)
    i | -0.72

4 compounds out of the list above, ordered by their value in KCNQ2 block, largest number first:
| molecule | KCNQ2 block |
| --- | --- |
| Cc1cccc(-c2nc(NCCCN3CCOCC3)c3ccccc3n2)c1 | -5.9* |
| Cc1ccc(N2C(=O)c3cccc4c(Oc5ccccc5[N+](=O)[O-])ccc(c34)C2=O)c(C)c1 | -6* |
| COc1ccccc1CNC(=O)c1cc(-c2ccccc2)nn1CC1CC(c2cccnc2)=NO1 (stereo unspecified) | -6.1* |
| O=C(NCCC(=O)N(CCc1ccccc1)Cc1ccccc1)c1ccccc1Cl | -6.7* |
